c-Myc SMM = binders of human c-Myc, primary screen, biochemical, small molecule microarray, anti-His fluorescence. AID 624141, 2012. Myc proto-oncogene protein (Homo sapiens), P01106. His-c-Myc binding. 17,000 tested, 1.5% active. calls only;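 active = spot fluorescence over background with P-value below 7% in all four replicate spots, showing protein binding; compounds were printed on slides so no solution concentration is given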;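 note: score is binary with 100 for all four spots passing and 0 otherwise; about 2 pmol printed per array spot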
STAT3 SMM = STAT3 binders, primary screen, biochemical, small molecule microarray, single point, set 2 | His-STAT3 binding, anti-His fluorescence | calls only | 17,000 tested, 0.2% active;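 active = compounds whose four printed spots each show fluorescence over background unusually high for their array block, chance value under 7%; compounds were printed on slides so no solution concentration is given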;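 note: about 2 pmol printed per array spot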
Target sequence (P40763 whole entry, looked up): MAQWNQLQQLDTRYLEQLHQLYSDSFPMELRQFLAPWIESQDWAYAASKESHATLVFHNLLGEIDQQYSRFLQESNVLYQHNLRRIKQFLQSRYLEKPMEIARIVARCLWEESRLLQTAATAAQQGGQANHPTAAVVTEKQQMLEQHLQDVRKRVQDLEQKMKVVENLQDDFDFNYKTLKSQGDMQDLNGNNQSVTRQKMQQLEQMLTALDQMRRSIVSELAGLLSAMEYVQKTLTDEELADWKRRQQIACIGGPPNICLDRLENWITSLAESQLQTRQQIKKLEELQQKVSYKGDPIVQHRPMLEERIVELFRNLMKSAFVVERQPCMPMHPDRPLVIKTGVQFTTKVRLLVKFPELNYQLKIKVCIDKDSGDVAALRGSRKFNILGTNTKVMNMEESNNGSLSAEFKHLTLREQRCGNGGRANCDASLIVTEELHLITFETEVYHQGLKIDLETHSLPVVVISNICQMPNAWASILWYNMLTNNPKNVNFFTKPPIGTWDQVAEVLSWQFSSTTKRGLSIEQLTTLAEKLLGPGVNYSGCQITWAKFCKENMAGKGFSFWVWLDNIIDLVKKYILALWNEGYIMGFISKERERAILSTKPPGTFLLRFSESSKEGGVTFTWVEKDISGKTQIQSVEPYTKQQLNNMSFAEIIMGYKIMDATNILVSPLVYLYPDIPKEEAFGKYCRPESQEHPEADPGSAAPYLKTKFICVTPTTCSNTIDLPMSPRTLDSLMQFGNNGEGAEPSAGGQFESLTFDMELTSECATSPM
ID4 binder = binders of human ID4 protein, primary screen, biochemical, small molecule microarray, single point. DNA-binding protein inhibitor ID-4 (Homo sapiens), P47928. Flag-ID4 binding, fluorescence F/B. calls only. 31,000 tested, 1.2% active. AID 624137, 2012;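 active = spot signal over background at p below 0.07 in all four prints; compounds were printed on slides so no solution concentration is given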;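 note: a binder raises fluorescence above local background on the spot; about 2 pmol printed per array spot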
Target sequence (P47928 whole entry, looked up): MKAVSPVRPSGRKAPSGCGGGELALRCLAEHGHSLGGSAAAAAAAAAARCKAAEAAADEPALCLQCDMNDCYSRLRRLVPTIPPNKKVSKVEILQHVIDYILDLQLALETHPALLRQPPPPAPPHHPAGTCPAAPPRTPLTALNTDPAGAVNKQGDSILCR
p53 mut binder = binders of human mutant p53, primary screen, biochemical, small molecule microarray, anti-GST fluorescence | small molecule microarray binding | calls only | 17,000 tested, 0.4% active;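 active = compounds whose four printed spots each glow above background more than chance allows, each with a p-value under 7%; compounds were printed on slides so no solution concentration is given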;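 note: about 2 pmol printed per array spot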
Calls only; i = inactive; · = no result given; + = active, no number. Only part of the results is shown, so the mix of outcomes need not match the whole.

SMILES | c-Myc SMM | STAT3 SMM | ID4 binder | p53 mut binder
CNC[C@H]1Oc2c(NS(=O)(=O)c3ccc(Cl)cc3)cccc2C(=O)N([C@H](C)CO)C[C@H]1C | i | i | i | i
C[C@@H]1CCCCO[C@@H](CN(C)S(=O)(=O)c2cn(C)cn2)[C@H](C)CN([C@@H](C)CO)C(=O)c2cc(NS(=O)(=O)c3cn(C)cn3)ccc2O1 | i | i | i | i
Cc1ccc(S(=O)(=O)Nc2ccc3c(c2)C(=O)N([C@H](C)CO)C[C@@H](C)[C@H](CN(C)S(=O)(=O)c2ccc(C)cc2)O3)cc1 | i | i | · | i
C=C(C(=O)O)[C@@H]1CC[C@@]2(C)C=CC(=O)[C@@H](CCC3(O)C(=O)C=C[C@]4(C)CC[C@@H](C(=C)C(=O)O)C[C@@H]34)[C@@H]2C1 (some centres not stated) | i | i | i | i
C[C@@H]1CCCCO[C@@H](CN(C)S(=O)(=O)c2ccc(Cl)cc2)[C@H](C)CN([C@@H](C)CO)C(=O)c2cc(NS(C)(=O)=O)ccc2O1 | i | i | · | i
COc1ccc(S(=O)(=O)N(C)C[C@H]2Oc3ccc(N(C)C)cc3CC(=O)N([C@H](C)CO)C[C@H]2C)cc1 | i | i | · | i
C[C@H](O)c1nc2ccccc2c(=O)[nH]1 | i | i | · | i
CC(C)COC(=O)N(C)C[C@@H]1OCc2cnnn2CCCC(=O)N([C@H](C)CO)C[C@@H]1C | i | i | · | i
CC(C)(C)C(=O)CSc1nnc(-c2ccncc2)n1-c1ccc(Br)cc1 | i | i | i | i
CC1=C(C(=O)Nc2ccccc2)C(c2ccccc2OCc2ccccc2)n2nnnc2N1 (configuration not stated) | i | i | i | i
Cc1noc(C)c1NC(=O)Nc1ccc2c(c1)C(=O)N([C@H](C)CO)C[C@H](C)[C@H](CN(C)C(=O)C1CCCCC1)OCCCC[C@H](C)O2 | i | + | i | i
C=C1CC(O)C2C(=C)C(=O)OC2C2C(=C)C(OC3OC(CO)C(O)C(OC(=O)/C=C/c4ccc(O)c(O)c4)C3O)CC12 (configuration not stated) | i | i | i | i
Cc1ccc(S(=O)(=O)N(C)C[C@H]2Oc3c(NS(=O)(=O)c4cn(C)cn4)cccc3C(=O)N([C@H](C)CO)C[C@H]2C)cc1 | i | i | · | i
C[C@@H]1CN([C@H](C)CO)C(=O)c2cc(NC(=O)CCC(F)(F)F)ccc2O[C@@H](C)CCCCO[C@@H]1CN(C)C | i | i | i | i
CC(C)(C)OC(=O)CC[C@]12N=C(c3ccc(OCCCO)cc3)O[C@H]1c1ccccc1CN(CCS(=O)(=O)c1ccccc1)C2=O | i | i | i | i
COC(=O)c1cc(-c2ccccc2)sc1NC(=S)NCc1ccccn1 | i | i | i | i
Cn1c(SCC(=O)Nc2ccc3ccccc3c2)nnc1-c1cc2ccccc2o1 | i | i | i | i
CC1(C)[C@H](O)CC[C@@]2(C)[C@@H]3CC[C@](C)(C(O)CO)CC3=CC[C@H]12 (some centres not stated) | i | i | i | i
CO[C@@]1(c2ccc3c(c2)OCO3)OC[C@@H]2[C@@H](c3ccc4c(c3)OCO4)OC[C@@]21O | i | i | · | i
CC(C)NC(=O)Nc1ccc2c(c1)C(=O)N([C@@H](C)CO)C[C@H](C)[C@H](CN(C)Cc1ccccc1)OCCCC[C@@H](C)O2 | i | i | i | i
CC(C)NC(=O)Nc1ccc2c(c1)C(=O)N([C@H](C)CO)C[C@@H](C)[C@H](CN(C)C)OCCCC[C@@H](C)O2 | i | i | i | i
C[C@@H]1CN([C@@H](C)CO)C(=O)CCCn2cc(nn2)CO[C@@H]1CN(C)C(=O)c1ccccc1 | i | i | i | i
COCCCNC(=O)[C@@]1(Cc2ccccc2)N=C(c2ccc(OCCCO)cc2)O[C@H]1c1ccccc1 | i | i | i | i
CCN(CC)c1nc(Oc2ccc(=O)[nH]n2)nc(N2CCOCC2)n1 | i | i | i | i
O=C(NCc1ccccn1)c1cc2cc(Br)ccc2oc1=O | i | i | i | i
CC(C)NC(=O)N(C)C[C@H]1OCCCC[C@@H](C)Oc2ccc(NC(=O)Nc3cccc4ccccc34)cc2C(=O)N([C@@H](C)CO)C[C@H]1C | i | i | i | i
C[C@@H]1CN([C@H](C)CO)C(=O)Cc2cc(N(C)C)ccc2O[C@H]1CN(C)S(=O)(=O)c1cccs1 | i | i | i | i
C[C@@H]1CN([C@H](C)CO)C(=O)c2cc(NS(=O)(=O)c3ccccc3)ccc2O[C@H]1CN(C)C(=O)NC1CCCCC1 | i | i | i | i
Cc1cc(C)c(NC(=O)CSc2nnc(-c3ccccc3Cl)n2C)c(C)c1 | i | i | i | i
Cc1noc(C)c1S(=O)(=O)Nc1ccc2c(c1)CC(=O)N([C@H](C)CO)C[C@@H](C)[C@@H](CN(C)C(=O)NC(C)C)O2 | i | i | i | i
CCc1ccccc1NC(=O)c1ccccc1S(=O)(=O)c1ccccc1[N+](=O)[O-] | i | i | i | i
C[C@@H]1CN([C@@H](C)CO)C(=O)Cc2cc(NC(=O)Cc3ccccc3)ccc2O[C@H]1CN(C)Cc1ccc(C(=O)O)cc1 | i | i | + | i
CCN(CC)CCNC(=O)c1ccc(NC(C)=O)cc1 | i | i | · | i
C[C@@H]1CN([C@@H](C)CO)C(=O)c2cccc(NS(=O)(=O)c3ccc(Cl)cc3)c2O[C@@H]1CN(C)Cc1ccc(C(=O)O)cc1 | i | i | i | i
C[C@H]1CN([C@@H](C)CO)C(=O)Cc2cc(NC(=O)Cn3cnnn3)ccc2O[C@@H]1CN(C)C(=O)Nc1cccc2ccccc12 | i | i | i | i
COc1ccc(S(=O)(=O)N(C)C[C@H]2OCCCC[C@@H](C)Oc3ccc(NC(=O)Nc4cccc5ccccc45)cc3C(=O)N([C@@H](C)CO)C[C@@H]2C)cc1 | i | i | · | i
CCCCC/C=C\C/C=C\C/C=C\C/C=C\CCCC(=O)OC(CO)CO | i | i | i | i
Cc1cc2nc3c(=O)[nH]c(=O)nc-3n(C)c2cc1C=O | + | i | · | i
Cc1noc(C)c1S(=O)(=O)Nc1ccc2c(c1)C(=O)N([C@@H](C)CO)C[C@H](C)[C@H](CN(C)C)OCCCC[C@@H](C)O2 | i | i | i | i
C[C@H]1CN([C@@H](C)CO)C(=O)c2cc(NC(=O)C3CC3)ccc2O[C@H]1CN(C)Cc1ccc(C(F)(F)F)cc1 | i | i | i | i
O=[N+]([O-])c1ccc(N2CCNCC2)cc1NCc1ccccn1 | i | i | i | i
COC(=O)C1=C2C(=O)c3c(O)cc(CO)cc3OC2C(O)C=C1 (configuration not stated) | i | i | · | i
COc1ccccc1N(CC(=O)N1CCCCC1)S(C)(=O)=O | i | i | i | i
CCOC(=O)c1c(NC(=O)Cn2nc(C)c([N+](=O)[O-])c2C)sc2c1CCCC2 | i | i | i | i
C[C@@H]1CN([C@H](C)CO)C(=O)Cc2cc(NC(=O)C3CC3)ccc2O[C@H]1CN(C)C(=O)Nc1cccc2ccccc12 | i | i | i | i
C[C@H]1CN([C@@H](C)CO)C(=O)CCCn2cc(nn2)CO[C@@H]1CN(C)S(=O)(=O)c1cccs1 | i | i | i | i
Cc1noc(C)c1NC(=O)Nc1ccc2c(c1)CC(=O)N([C@H](C)CO)C[C@H](C)[C@H](CN(C)C)O2 | i | i | i | i
COc1ccc(CN(C)C[C@H]2Oc3c(NS(=O)(=O)c4ccc(Cl)cc4)cccc3C(=O)N([C@H](C)CO)C[C@H]2C)cc1 | i | i | i | i
C=C(COC(=O)C(C)C)C1Oc2cc(C(C)=O)ccc2C1OC(=O)C(C)C (configuration not stated) | i | i | i | i
CC(C)NS(=O)(=O)c1ccc(OCC(=O)N2CCOCC2)c(Cl)c1 | i | i | i | i
C[C@@H]1CN([C@H](C)CO)C(=O)c2cc(NS(C)(=O)=O)ccc2O[C@@H](C)CCCCO[C@H]1CN(C)S(=O)(=O)c1cn(C)cn1 | i | i | i | i
C[C@H]1C=C(C(=O)N2CCN(Cc3ccccc3)CC2)O[C@@H](OCc2ccc(CO)cc2)C1 | i | i | i | i
CCOc1cccc2c(C)nc(Nc3nc4c(c(=O)[nH]3)CCCC4)nc12 | i | i | i | i
C[C@@H]1CN([C@H](C)CO)C(=O)c2cc(NC(=O)Nc3ccc(C(F)(F)F)cc3)ccc2O[C@H]1CN(C)C | i | i | i | i
Cn1c(SCC(=O)Nc2ccc(F)cc2)nnc1-c1ccc([N+](=O)[O-])cc1 | i | i | i | i
C[C@H]1CN([C@@H](C)CO)C(=O)CCCn2cc(nn2)CO[C@H]1CN(C)S(=O)(=O)c1ccc(Oc2ccccc2)cc1 | i | i | i | i
C[C@H]1CN([C@@H](C)CO)C(=O)Cc2cc(NC(=O)C3CC3)ccc2O[C@@H]1CN(C)C(=O)Nc1ccccc1 | i | i | i | i
Cc1noc(C)c1NC(=O)Nc1ccc2c(c1)C(=O)N([C@H](C)CO)C[C@@H](C)[C@H](CN(C)S(=O)(=O)c1cccs1)OCCCC[C@@H](C)O2 | i | i | · | i
C[C@H]1CN([C@@H](C)CO)C(=O)Cc2cc(NC(=O)NC3CCCCC3)ccc2O[C@H]1CN(C)Cc1ccc(Oc2ccccc2)cc1 | i | i | · | i
C[C@@H]1CN([C@H](C)CO)C(=O)CCCn2cc(nn2)CO[C@H]1CN(C)S(=O)(=O)c1ccc(-n2cccn2)cc1 | i | i | i | i
The listing continues:
SMILES | c-Myc SMM | STAT3 SMM | ID4 binder | p53 mut binder
Cc1noc(C)c1S(=O)(=O)Nc1ccc2c(c1)CC(=O)N([C@H](C)CO)C[C@@H](C)[C@H](CN(C)S(=O)(=O)c1ccccc1)O2 | i | i | i | i
C[C@@H]1CN([C@H](C)CO)C(=O)c2cc(N(C)C)ccc2O[C@@H](C)CCCCO[C@H]1CN(C)C(=O)CCC(F)(F)F | i | i | i | i
Cc1noc(C)c1S(=O)(=O)Nc1ccc2c(c1)C(=O)N([C@@H](C)CO)C[C@@H](C)[C@H](CN(C)C(=O)Nc1ccc3c(c1)OCO3)O2 | i | i | i | i
Cc1noc(C)c1S(=O)(=O)Nc1ccc2c(c1)C(=O)N([C@@H](C)CO)C[C@H](C)[C@H](CN(C)C(=O)NC1CCCCC1)O2 | i | i | i | i
CC(C)=CCc1c(-c2ccc(O)cc2O)oc2c3c(cc(O)c2c1=O)OC(C)(C)C=C3 | i | i | · | i
C[C@H](CO)N1C[C@H](C)[C@@H](CN(C)C(=O)NC2CCCCC2)Oc2ccc(NC(=O)Cn3cnnn3)cc2C1=O | i | i | i | i
NS(=O)(=O)c1cc2c(cc1Cl)NC(CC1CCCC1)NS2(=O)=O (configuration not stated) | i | i | i | i
O=C(CS)NCCCCCCNC(=O)[C@H]1C[C@H]2C(=O)NCC(=O)N2[C@H]1c1cccc(OCCO)c1 | i | i | · | i
COc1ccc(S(=O)(=O)Nc2ccc3c(c2)CC(=O)N([C@@H](C)CO)C[C@H](C)[C@@H](CN(C)C)O3)cc1 | i | i | i | i
Cn1cnnc1SC1CCCCC1NS(=O)(=O)c1ccccc1 (configuration not stated) | i | i | i | i
C[C@H]1CN([C@@H](C)CO)C(=O)Cc2cc(NS(=O)(=O)c3ccccc3)ccc2O[C@@H]1CN(C)C(=O)Nc1ccc2c(c1)OCO2 | i | i | i | i
C[C@@H]1CN([C@@H](C)CO)C(=O)CCCn2nncc2CO[C@@H]1CN(C)Cc1ccc(C(F)(F)F)cc1 | i | i | i | i
C[C@@H]1CN([C@H](C)CO)C(=O)c2cc(N(C)C)ccc2O[C@@H](C)CCCCO[C@H]1CN(C)S(=O)(=O)c1cccs1 | i | i | i | i
C[C@H](CO)N1C[C@H](C)[C@@H](CN(C)Cc2ccc(Oc3ccccc3)cc2)Oc2c(NS(C)(=O)=O)cccc2C1=O | i | i | i | i
C[C@@H]1CCCCO[C@H](CN(C)Cc2ccccc2)[C@@H](C)CN([C@H](C)CO)C(=O)c2cc(NC(=O)CCC(F)(F)F)ccc2O1 | i | i | i | i
C[C@@H]1CCCCO[C@@H](CN(C)C(=O)CCC(F)(F)F)[C@H](C)CN([C@@H](C)CO)C(=O)c2cc(NS(C)(=O)=O)ccc2O1 | i | i | i | i
